# 2A StopGo: High Throughput Screening for Foot and Mouth Disease Virus Antivirals; Potency, µM (doses to about 57.9 µM), inactives show at the highest dose signal change, negative = less light; 410,000 compounds, 1.2% hits; human cells with a luciferase reporter of 2A StopGo recoding; control for the full effect not named in the record; active = well fitted falling curve with a large enough effect; inconclusive = small, poorly fitted or top-dose-only effect; inactive = no such curve, though single readings can be large or run the other way; tested in HEK293T cells; also: % is scaled to controls: 0 for no effect and ±100 for the full control effect; nearly all actives have a fitted effect of over 45% in size; luciferase light after 4 h
# Cruzain inh Det: qHTS Assay for Promiscuous and Specific Inhibitors of Cruzain (with detergent). purified cruzain, Z-FR-AMC fluorescence, 0.01% Triton. Potency, µM, for the others: max response, negative = inhibition, hits mostly inhibitors. Cruzipain (Trypanosoma cruzi), P25779. 200,000 compounds, 0.43% hits;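 also: plate controls were neutral wells for no effect and buffer without enzyme for full effect; nearly all actives have a fitted effect of over 40% in size; top concentration of the series not given in the record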
# Target sequence (P25779 123-467 limits assumed): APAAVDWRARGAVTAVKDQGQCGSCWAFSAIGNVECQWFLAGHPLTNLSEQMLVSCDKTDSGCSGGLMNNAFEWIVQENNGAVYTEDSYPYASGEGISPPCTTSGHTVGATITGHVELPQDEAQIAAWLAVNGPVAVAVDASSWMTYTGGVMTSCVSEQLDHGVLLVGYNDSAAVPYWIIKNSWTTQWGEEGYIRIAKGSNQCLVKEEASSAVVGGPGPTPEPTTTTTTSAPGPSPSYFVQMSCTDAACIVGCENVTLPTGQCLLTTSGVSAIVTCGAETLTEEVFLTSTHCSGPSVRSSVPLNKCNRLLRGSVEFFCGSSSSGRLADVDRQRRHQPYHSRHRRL
#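 Sodium acetate buffer (100 mM, pH 5.5) containing 5 mM DTT and 0.01% Triton X-100 hosted 1.5 nM cruzain and test compound for 15 min at room temperature. Cleavage of 2 uM Z-FR-AMC was then tracked by fluorescence.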
# SARS PLP yeast: qHTS of Yeast-based Assay for SARS-CoV PLP. Potency, µM (doses to about 32.9 µM), inactives show at the highest dose activity, positive = growth rescue. 330,000 compounds, 0.19% hits. S. cerevisiae expressing SARS-CoV PLpro, growth rescue; control for the full effect not named in the record; active means well fitted rising curve with a large enough effect; inconclusive means small, poorly fitted or top-dose-only effect; inactive means no such curve, though single readings can be large or run the other way; also: 0% is about no effect; nearly all actives have a fitted effect of over 55% in size; growth read by luminescence after 48 h
# Marburg entry inh: qHTS for inhibitors of binding or entry into cells for Marburg Virus | Marburg virus pseudotyped entry inhibition, cell reporter; control for the full effect not named in the record; about a third of the inactives were read at about 46 µM | Potency, µM (highest dose often 37.8 µM), for inactives: at the top dose activity change, negative = inhibition, actives largely listed as inhibitors | 300,000 compounds, 1.8% hits; active = well fitted inhibition curve with a large enough effect; inconclusive = small, poorly fitted or top-dose-only effect, or effect the other way; inactive = flat fitted curve, though single readings scatter; tested in HEK293 cells; about a fifth of its hits are not listed in these tables; also: % is scaled to controls: 0 for no effect and ±100 for the full control effect; luciferase read-out
# Cruzain noTriton: qHTS Assay for Promiscuous and Specific Inhibitors of Cruzain (without detergent); Potency, µM, inactives show max response, negative = inhibition, actives largely listed as inhibitors; 200,000 compounds, 2.3% hits; purified cruzain, Z-FR-AMC fluorescence, no detergent;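 also: plate controls were enzyme without inhibitor for no effect and buffer without enzyme for full effect; nearly all actives have a fitted effect of over 40% in size; top concentration of the series not given in the record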
#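 Purified cruzain at 1.5 nM, pre-incubated 15 min with compound at room temperature in 100 mM sodium acetate pH 5.5, 5 mM DTT, 0.00005% Triton X-100. Reaction started with 2 uM Z-FR-AMC; AMC fluorescence increase over 60 s gives rate.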
# RE007 growth inh: qHTS Assay for Inhibitors of the HIV-1 protein Vpr; S. pombe RE007 Vpr strain, BacTiter-Glo ATP luminescence, 24 h; control for the full effect not named in the record; Potency, µM (top dose mostly 92.2 µM), without a hit: at the top dose activity change, negative = less growth; 360,000 compounds, 0.21% hits; active = well fitted falling curve with a large enough effect; inconclusive = small, poorly fitted or top-dose-only effect; inactive = no such curve, though single readings can be large or run the other way;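 also: % is scaled to controls: 0 for no effect and ±100 for the full control effect; nearly all actives have a fitted effect of over 50% in size; the assay follows cell death caused by Vpr and the record does not say whether a fall means rescue or toxicity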
#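 Fission yeast strain RE007, carrying one chromosomally integrated HIV-1 vpr copy, was seeded at OD 0.01 in PMG+AL medium with 23 nL pinned compound. After 24 h at 30 °C and 99% humidity, viability was read by BacTiter-Glo luminescence.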
# NS1 function inh: qHTS Assay for Inhibitors of Influenza NS1 Protein Function | S. cerevisiae slowed by influenza A NS1, growth recovery by OD600 | Potency, µM (titrated, usually from 46.1 µM), for inactives: at the top dose activity, positive = more growth | 270,000 compounds, 0.4% hits; active means well fitted rising curve with a large enough effect; inconclusive means small, poorly fitted or top-dose-only effect; inactive means no such curve, though single readings can be large or run the other way; also: nearly all actives have a fitted effect of over 50% in size
#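 Compounds were scored for reversing the slow growth caused by influenza A NS1 in S. cerevisiae, measured by optical density at 600 nm. Assay medium contained 2% galactose at pH 6.0; NS1-free yeast of the same strain were the positive control.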
# LASV entry inh: qHTS for Inhibitors of binding or entry into cells for Lassa Virus | Lassa virus pseudotype entry inhibition, cell reporter; control for the full effect not named in the record | Potency, µM (series often up to 37.9 µM), inactives show top-dose activity change, negative = inhibition, most hits filed as inhibitors | 300,000 compounds, 1.2% hits; active means well fitted inhibition curve with a large enough effect; inconclusive means small, poorly fitted or top-dose-only effect, or effect the other way; inactive means flat fitted curve, though single readings scatter; tested in HEK293 cells; also: % is scaled to controls: 0 for no effect and ±100 for the full control effect; nearly all actives have a fitted effect of over 50% in size; luciferase read-out
# Numbers without * were called inactive; ? = inconclusive; · = not tested or not shown; [ ] = another dose, or the depositor's remark. Unless noted, calls follow the shape of the dose curve; as a rule, active = well fitted curve in the direction sought with a large enough effect; inconclusive = small, poorly fitted or top-dose-only effect, or another doubt; inactive = no such curve, though single readings can be large; an effect the other way counts as inactive or inconclusive. Potency is read from the fitted curve at half-maximal effect.
SMILES,2A StopGo,Cruzain inh Det,SARS PLP yeast,Marburg entry inh,Cruzain noTriton,RE007 growth inh,NS1 function inh,LASV entry inh
CCOc1cc(NC(=S)Nc2cccc(OC)c2)c(OCC)cc1NC(=O)C(C)C,0%,4.0%,-1%,-16%,3%,5%,9%,-1%
C/C(=N/NS(=O)(=O)c1ccc(C)cc1)c1c(O)c2ccccc2oc1=O,-24%,·,0%,6%[46.1 µM],·,2%,-68%,2%
CCN(CC)S(=O)(=O)c1ccc2c(c1)N(CC(=O)Nc1ccc(F)cc1F)C(=O)C1CCCN21 (stereo not given),-5%,-3.6%,·,·,-21%,·,·,-9%[46.1 µM]
CCOC(=O)Cn1c(-c2ccc(Cl)nc2)nc2ccccc21,-21%,3.2%,10%,-3%,-2%,-7%,-7%,8%
Cc1ccc2onc(CNC(=O)NCc3ccccc3)c2c1,29%,-1.3%,·,·,-10%,·,·,-19%[46.1 µM]
COc1ccccc1NS(=O)(=O)c1cccc(C(=O)NCc2ccco2)c1,18%,·,-2%,3%,·,-2%,·,-19%
CCOC(=O)N1CCN(S(=O)(=O)c2ccc3c(c2)SC(C)C(=O)N3)CC1 (stereo not given),?,-3.3%,14%,?,5%,12%,?,-25%
CCCn1c(C)nc2c(c1=O)c1nc3ccccc3nc1n2-c1ccccc1,-7%,·,·,-6%[46.1 µM],·,-6%,·,25%[46.1 µM]
O=C(CCCCn1c(=O)c2ccccc2n(CC(=O)Nc2ccc(F)cc2F)c1=O)NCc1ccccc1Cl,-16%,-2.2%,·,0%[46.1 µM],2%,·,·,-6%[46.1 µM]
COc1ccc(C2OCC3(CO2)SC(N)=NC3=O)cc1 (stereo not given),·,3.8%,-14%,5%,0%,5%,6%,11%
COc1cc(OC)cc(C(=O)OCC(=O)N2CCCC2)c1,-5%,·,15%,-28%[46.1 µM],·,-8%,11%,-3%[46.1 µM]
COc1ccc(OC)c(NC(=S)N2CCN(C(=O)C3CCCO3)CC2)c1 (stereo not given),-16%,·,0%,·,·,-8%,8%,·
c1ccc2c(CNc3ccc(CNc4ncn[nH]4)cc3)cccc2c1,?,-8.4%,-17%,-2%,?,-5%,11%,-2%
COC(=O)c1ccsc1NC(=O)c1ccc(Cl)s1,-3%,·,-1%,·,·,5%,7%,·
CCOc1cc(Cl)c(NC(C)=O)cc1OCC,-19%,-0.7%,5%,8%,18%,4%,14%,10%
O=C(CN1N=C(c2ccccc2)CCC1=O)NCc1ccc(F)cc1Cl,1%,-0.5%,·,·,7%,·,·,?
CN(CCOc1ccccc1)C(=O)c1cc([N+](=O)[O-])cc([N+](=O)[O-])c1,-21%,·,0%,-14%[46.1 µM],·,0%,1%,3%
Cc1ccc(N2CCN(Cc3ccccc3)CC2=O)c(C)c1,15%,·,6%,·,·,24%,12%,·
CN(C(=O)c1c(Cl)nc2sccn12)C1CCCCC1,-25%,0.8%,-2%,-3%,-1%,10%,-16%,-1%
COC(=O)C(O)(c1ccc(NC(=O)c2ccco2)c(OC)c1)C(F)(F)F (stereo not given),5%,4.2%,2%,6%[46.1 µM],15%,-17%,-4%,3%
CCCCN(C(=O)c1c(CC)noc1C)c1c(N)n(CCC)c(=O)[nH]c1=O,-13%,·,2%,21%,·,32%,·,16%
Cc1nnc(N2CCCC(C(=O)Nc3ccccc3C(F)(F)F)C2)c2nn(-c3ccccc3)c(C)c12 (stereo not given),-7%,-3.5%,·,·,-4%,·,·,3%[46.1 µM]
COc1ccccc1CNC(=O)c1oc2ccccc2c1C,-3%,·,-5%,?,·,-8%,-17%,-20%[46.1 µM]
CCCOc1ccccc1NC(=O)Nc1ccccc1Cl,-1%,·,1%,?,·,-6%,·,14%[46.1 µM]
CC(C)c1cc(CN2C(C)COCC2C)cc(C(C)C)c1O (stereo not given),?,·,·,?,·,-8%,·,1%
O=C(NC1CC2CCC1C2)c1ccco1 (stereo not given),2%,·,2%,-9%[46.1 µM],·,1%,-14%,-14%[46.1 µM]
CCCC1(C(=O)O)NC(c2ccc(OC)cc2O)C2C(=O)N(c3ccc(OC)cc3)C(=O)C21 (stereo not given),-17%,-1.0%,18%,·,-2%,4%,5%,·
CCCOC1CCCN(C(=O)c2ccc(OC)c(OC3CCN(C(C)C)CC3)c2)C1 (stereo not given),16%,·,5%,30%,·,5%,-13%,0%
COc1ccc(Cl)cc1NC(=O)CN(C)C(=O)c1ccc2c(c1)CC(c1ccccc1)OC2=O (stereo not given),-28%,·,0%,?,·,0%,·,?
Cc1ccccc1OCC(=O)NNC(=O)c1ccc(-n2cncn2)c([N+](=O)[O-])c1,-4%,·,-7%,22%,·,-3%,·,-2%
COC(=O)c1ccc2nc(C)cc(Nc3ccccc3C)c2c1,-18%,·,0%,·,·,-7%,6%,·
Cc1ccc(-c2cn(-c3ccc(Cl)cc3)c(S(=O)(=O)CC(=O)Nc3ccccc3)n2)cc1,25%,-18%,·,?,16µM*,·,·,-21%[46.1 µM]
Cc1ccc(OCC(=O)NCCc2c[nH]c3ccccc23)cc1,-20%,·,-2%,?,·,-4%,-9%,?
CCc1ccc(-c2cc(C(=O)Nc3ccc(S(=O)(=O)NC(C)=O)cc3)c3ccccc3n2)cc1,19%,?,-1%,21%,?,2%,?,-18%
COC(=O)c1nc(NC(=O)c2ccc(Cl)cc2)n[nH]1,·,2.6%,10%,3%,-6%,-1%,-11%,20%
COC(=O)CCc1sc(Nc2ccc(OC)cc2)nc1-c1ccc(OC)cc1,7%,-8.9%,·,4%[46.1 µM],-2%,·,·,?
c1ccc(NC2=NCCN2CCC2CCCC2)cc1,-11%,·,-5%,·,·,-11%,-15%,·
COc1ccc(S(=O)(=O)N2CCC(C(=O)NCc3cccnc3)CC2)cc1OC,5%,·,4%,23%[46.1 µM],·,-1%,-3%,4%[46.1 µM]
COc1ccccc1OCCC(=O)Nc1nc(C)cs1,-1%,·,2%,·,·,2%,-49%,·
Cc1csc(SCC(=O)Nc2cccc3nsnc23)n1,-9%,-0.3%,-4%,8%,-12%,-16%,-24%,?
COc1ccc(N2CCN(C(=O)COC(=O)/C=C/c3ccc(C(F)(F)F)cc3)CC2)cc1,-1%,·,4%,5%[46.1 µM],·,13%,·,15%
COc1ccc(N2CCN(CCCNC(=O)c3ccc4nc(N5CCCCC5)sc4c3)CC2)cc1,-27%,-4.3%,·,2%[46.1 µM],-5%,·,·,?
CC(NC(=O)Cn1cnnn1)C12CC3CC(CC(C3)C1)C2 (stereo not given),-22%,-0.5%,4%,-1%,-7%,12%,3%,-26%
O=C(O)c1cc(-c2ccc3ccccc3c2)nc2ccc(F)cc12,8%,·,-4%,·,·,-23%,-41%,·
CCc1ccc(C(=O)Nc2cccc(-c3nc4cc(C(C)C)ccc4o3)c2)cc1,1%,0.0%,·,22%[46.1 µM],-10%,·,·,1%[46.1 µM]
Cc1ccccc1CCNC(=O)C1CCC(=O)N(CCc2cccc(F)c2)C1 (stereo not given),19%,·,1%,·,·,4%,-2%,·
COC(=O)c1nn(-c2ccccc2)c(=O)cc1Sc1ccc(Cl)cc1,-17%,·,2%,4%[46.1 µM],·,15%,·,?
COc1ccc2c(c1)CC(C(=O)NCCN1CCN(c3ccccc3F)CC1)CO2 (stereo not given),-13%,-1.9%,·,·,1%,·,·,-12%[46.1 µM]
CNC(=O)COc1ccc(S(=O)(=O)Nc2ccc(OC)cc2)cc1,-11%,·,1%,1%[46.1 µM],·,17%,-2%,-11%[46.1 µM]
O=C(O)c1ccccc1/C=N/NC(=O)C1CCCCC1,6%,·,-4%,·,·,4%,3%,·
# (next part)
SMILES,2A StopGo,Cruzain inh Det,SARS PLP yeast,Marburg entry inh,Cruzain noTriton,RE007 growth inh,NS1 function inh,LASV entry inh
Cc1ccccc1-c1nc2cc(N)ccc2o1,-9%,-4.5%,-5%,?,-10%,-14%,-45%,?
CCN(CC)CCCN1C(=O)C(O)=C(C(=O)c2cc3ccccc3o2)C1c1ccccn1 (stereo not given),5%,1.4%,-2%,5%,-9%,9%,-7%,24%
CC1CCC(NC(=O)c2ccc(NC(=O)c3ccc(=O)[nH]c3)cc2)CC1 (stereo not given),·,-0.5%,14%,22%,?,·,16%,9%
CCOC(=O)c1ccc(NS(=O)(=O)c2c(C)[nH]c(C)c2C(=O)N2CCCCC2)cc1,0%,·,-1%,-26%[46.1 µM],·,9%,8%,?
O=C(NCSc1ccncn1)c1ccccc1,-16%,3.7%,-11%,-7%,-5%,-16%,-3%,9%
O=C(CCn1c(=O)sc2ccccc21)NC1CCCCC1,0%,·,0%,·,·,0%,3%,·
Cc1cccc(NC(=O)NCCN2C(=O)C3C4C=CC(C4)C3C2=O)c1 (stereo not given),28%,1.4%,-5%,-3%,-1%,-8%,-7%,·
O=C(CSc1nnc2c(Cl)cc(Cl)cn12)NC1CCS(=O)(=O)C1 (stereo not given),-18%,2.9%,14%,7%,2%,-1%,-5%,16%
CN1CCN(CCCCOc2ccc(F)cc2)CC1,-4%,4.5%,11%,14%,14%,1%,2%,-2%
COc1ccc(CCNC(=O)c2cc(-c3cccs3)on2)cc1OC,15%,-2.8%,6%,-17%,0%,-10%,-13%,-1%
CC[C@]12c3[nH]c4cc(CCC(=O)N(C)C)ccc4c3CCN1C(=O)[C@@H](CC(=O)NCCCn1ccnc1)C[C@@H]2C(=O)N1CCN(C(=O)c2ccco2)CC1,-8%,·,-11%,0%,·,-1%,·,·
Cc1cc(C)cc(OCC(O)Cn2nc(C)cc2C)c1 (stereo not given),-2%,·,0%,·,·,12%,-3%,·
Cn1c(CNC(=O)c2ccco2)nnc1SCC(=O)Nc1ccccc1Cl,-17%,·,7%,?,·,2%,·,20%
Cc1ccc(N2CC3=C(C2=O)C(c2ccccc2)NC(=O)N3C)cc1 (stereo not given),4%,-2.6%,1%,?,6%,3%,-5%,-1%

# Screening results (PubChem)
